KCNQ2 pot: KCNQ2 (rat) channel potentiation; CHO-K1 KCNQ2, FluxOR thallium flux fluorescence; hits give high values; O88943; B-score at 10 µM; 310,000 tested, 0.54% active; AID 2239;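 active means fluorescence ratio B-score at least 3 SD of library B-scores, with initial fluorescence B-score within 3 SD, cut at about 5.3 in these data; same plate scores as AID 2156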;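 further: B-score of peak minus minimum over baseline fluorescence ratio after K+ and Tl+ stimulus; positive B-score means potentiation of KCNQ2 with more thallium influx and brighter signal; only the inactives scoring about 0 or higher are listed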
Target sequence (O88943 whole entry, looked up): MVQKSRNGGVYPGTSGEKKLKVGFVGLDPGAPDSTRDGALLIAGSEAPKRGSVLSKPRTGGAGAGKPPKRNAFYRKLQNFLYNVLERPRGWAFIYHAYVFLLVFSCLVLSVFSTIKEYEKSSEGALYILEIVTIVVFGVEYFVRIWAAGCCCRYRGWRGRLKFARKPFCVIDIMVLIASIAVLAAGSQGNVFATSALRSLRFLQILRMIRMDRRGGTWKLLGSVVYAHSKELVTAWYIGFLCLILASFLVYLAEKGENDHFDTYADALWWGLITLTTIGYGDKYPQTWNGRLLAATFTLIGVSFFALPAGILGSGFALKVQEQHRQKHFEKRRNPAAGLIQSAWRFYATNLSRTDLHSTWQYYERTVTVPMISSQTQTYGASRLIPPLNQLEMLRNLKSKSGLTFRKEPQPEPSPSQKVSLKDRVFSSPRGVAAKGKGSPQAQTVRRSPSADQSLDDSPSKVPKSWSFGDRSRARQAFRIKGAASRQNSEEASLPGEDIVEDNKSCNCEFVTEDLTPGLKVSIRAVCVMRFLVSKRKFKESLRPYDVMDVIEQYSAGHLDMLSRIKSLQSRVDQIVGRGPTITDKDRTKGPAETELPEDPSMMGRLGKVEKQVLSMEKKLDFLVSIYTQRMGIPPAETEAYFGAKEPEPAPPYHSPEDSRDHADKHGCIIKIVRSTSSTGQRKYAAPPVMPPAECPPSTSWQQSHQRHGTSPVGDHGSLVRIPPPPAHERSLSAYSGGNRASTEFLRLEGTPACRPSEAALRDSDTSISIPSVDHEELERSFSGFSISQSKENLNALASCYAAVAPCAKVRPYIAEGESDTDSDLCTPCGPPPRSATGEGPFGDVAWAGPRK
KCNQ2 pot baseline: second read-out of KCNQ2 pot, no call of its own (marks repeat the call); B-score; compound at 10 µM; measured here: initial fluorescence intensity artifact check;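 brightness before thallium and not channel activity; 0 = typical well and far values either way flag optical interference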
* marks the source's active call; other numbers are inactive results.

`COC(=O)c1ccccc1C(=O)c1ccc2c(c1)NC(=O)CO2` gave KCNQ2 pot 1.7 and KCNQ2 pot baseline -0.96.
`CC(OC(=O)CC1CC2CCC1C2)C(=O)Nc1ccc(N2CCOCC2)cc1` (stereo unspecified) gave KCNQ2 pot 0.93 and KCNQ2 pot baseline -1.7.
`COc1ccccc1NC1=NC(c2ccc(Cl)cc2)N=C(N)N1` (stereo unspecified) gave KCNQ2 pot 1.1 and KCNQ2 pot baseline 2.1.
For Cc1ccc(NC(=O)c2ccc(NS(=O)(=O)c3ccc4[nH]c(=O)[nH]c4c3)cc2)nc1 the results were KCNQ2 pot 0.38 and KCNQ2 pot baseline -2.
Cc1ccccc1C(=O)NCCCc1ccccc1 was read as KCNQ2 pot 0.01 and KCNQ2 pot baseline 0.01.
`O=C(O)c1cccc(-n2cccc2/C=C2/NC(=O)N(c3cccc(Cl)c3)C2=O)c1` gave KCNQ2 pot 2.4 and KCNQ2 pot baseline 0.46.
`Cc1cccc(/C=C\c2nc3ccccc3c(=O)[nH]2)c1` gave KCNQ2 pot 2.2 and KCNQ2 pot baseline -2.8.
CC(C)(C)NC(=O)C(c1ccc(O)cc1)N(Cc1ccccc1)C(=O)CCC(=O)Nc1nccs1 (stereo unspecified) was read as KCNQ2 pot 0.87 and KCNQ2 pot baseline 0.1.
O=c1c2ccc([N+](=O)[O-])cc2ncn1Cc1ccccc1C(F)(F)F was read as KCNQ2 pot 0.05 and KCNQ2 pot baseline 0.
CCc1cc2c(N3CCN(C(=O)c4ccco4)CC3)ncnc2s1 was read as KCNQ2 pot 5.7* and KCNQ2 pot baseline -1.6*.
CN1/C(=C\C(=O)C[n+]2cccc(Br)c2)C(C)(C)c2ccccc21 was read as KCNQ2 pot 1.8 and KCNQ2 pot baseline 0.07.
`CCc1c(C(=O)NN2C(=O)C3CCCCC3C2=O)csc1C` (stereo unspecified) gave KCNQ2 pot 2.3 and KCNQ2 pot baseline 0.74.
COCCCn1c(C(=O)Nc2ccc3c(c2)OCO3)cc2c(=O)n3ccccc3nc21 was read as KCNQ2 pot 1 and KCNQ2 pot baseline 0.61.
Screening CCc1nc2sc3c(c2c(=O)n1N)CCC3 returned KCNQ2 pot 1.8 and KCNQ2 pot baseline -0.85.
NC(=O)N/N=C/c1cn(-c2ccccc2)nc1-c1ccccc1 was read as KCNQ2 pot 0.06 and KCNQ2 pot baseline 0.19.
`C#CNC(=O)C1(CC=C)CCNCC1` gave KCNQ2 pot 0.07 and KCNQ2 pot baseline 0.23.
CC(C)NC(=O)C(=O)NCCc1ccc(Cl)cc1 was read as KCNQ2 pot 0.64 and KCNQ2 pot baseline -0.06.
Screening CCOC(=O)c1cccc(OS(=O)(=O)Cc2ccccc2)c1 returned KCNQ2 pot 0.14 and KCNQ2 pot baseline -1.2.
Screening COC(=O)c1ccccc1NC(=O)C1CCN(C(=O)c2cc(OC)c(OC)c(OC)c2)CC1 returned KCNQ2 pot 0.96 and KCNQ2 pot baseline 0.06.
`Cc1ccc(S(=O)(=O)N2CCN(C(=O)CSc3nnc(C)s3)C2)cc1` gave KCNQ2 pot 1.4 and KCNQ2 pot baseline -0.03.

Nothing new here: entries from further up.
`COC(=O)c1ccccc1C(=O)c1ccc2c(c1)NC(=O)CO2` gave KCNQ2 pot 1.7 and KCNQ2 pot baseline -0.96.
`CC(OC(=O)CC1CC2CCC1C2)C(=O)Nc1ccc(N2CCOCC2)cc1` (stereo unspecified) gave KCNQ2 pot 0.93 and KCNQ2 pot baseline -1.7.
`COc1ccccc1NC1=NC(c2ccc(Cl)cc2)N=C(N)N1` (stereo unspecified) gave KCNQ2 pot 1.1 and KCNQ2 pot baseline 2.1.
For Cc1ccc(NC(=O)c2ccc(NS(=O)(=O)c3ccc4[nH]c(=O)[nH]c4c3)cc2)nc1 the results were KCNQ2 pot 0.38 and KCNQ2 pot baseline -2.
Cc1ccccc1C(=O)NCCCc1ccccc1 was read as KCNQ2 pot 0.01 and KCNQ2 pot baseline 0.01.

New compounds follow
`Cn1c(=O)n(C)c2cc([N+](=O)[O-])c(N3CCN(C(=O)c4ccccc4)CC3)cc21` gave KCNQ2 pot 0.69 and KCNQ2 pot baseline 1.3.
`CCOC(=O)c1cn(Cc2ccccc2)c2cc(C)nn2c1=O` gave KCNQ2 pot 1.2 and KCNQ2 pot baseline -0.88.
`COc1cc(C(=O)Nc2nnc(Cc3ccccc3)s2)cc(OC)c1OC` gave KCNQ2 pot 1.5 and KCNQ2 pot baseline 1.4.
`CC(=O)N1c2ccc(S(=O)(=O)N3CCCC3)cc2CC1C(=O)NCc1ccc(OC(C)C)cc1` (stereo unspecified) gave KCNQ2 pot 0.7 and KCNQ2 pot baseline 1.3.
`COc1ccc(-c2nn(CCC(=O)O)cc2/C=C2\SC(N)=NC2=O)cc1OC` gave KCNQ2 pot 0.11 and KCNQ2 pot baseline -2.3.
Screening [O-]/[N+](=C\c1ccc(OC(F)F)cc1)c1ccccc1 returned KCNQ2 pot 0.71 and KCNQ2 pot baseline -1.2.
`O=C(CCNc1ccc(Cl)cc1)c1cccs1` gave KCNQ2 pot 1.2 and KCNQ2 pot baseline -0.77.
`Cc1ccc(CNC(=O)CN2C(=O)NC(C)(c3ccccc3Cl)C2=O)cc1` (stereo unspecified) gave KCNQ2 pot 0.02 and KCNQ2 pot baseline -0.15.
Screening Cc1[nH]n(-c2ccc(F)cc2)c(=O)c1C=Nc1ccc(S(=O)(=O)N(C)C)cc1 returned KCNQ2 pot 0.41 and KCNQ2 pot baseline 0.12.
`O=C(NCCc1ccccc1)c1ccc(NS(=O)(=O)c2ccc3[nH]c(=O)[nH]c3c2)cc1` gave KCNQ2 pot 0.2 and KCNQ2 pot baseline -0.19.
For COc1ccc(-n2c(=O)cc(N3CCN(c4ccccc4)CC3)[nH]c2=O)cc1 the results were KCNQ2 pot 0.7 and KCNQ2 pot baseline -0.95.
`C/C(=N/NC(=O)C1CCCC1)c1ccc(NC(=O)C(F)(F)F)cc1` gave KCNQ2 pot 0.05 and KCNQ2 pot baseline -0.97.
For COc1ccc(N2CCN(C(=O)CCNS(=O)(=O)c3ccc(Br)s3)CC2)cc1 the results were KCNQ2 pot 0.53 and KCNQ2 pot baseline -0.36.
Screening COc1ccc2[nH]c3ccccc3c2c1 returned KCNQ2 pot 0.26 and KCNQ2 pot baseline 3.
Screening C=CCN1C(=O)C2C(C(=O)NC3CCCC3)C3(C)C=CC2(O3)C1C(=O)NC1CCCC1 (stereo unspecified) returned KCNQ2 pot 0.18 and KCNQ2 pot baseline -0.83.
O=C(CSCc1c(F)cccc1Cl)NCc1cccnc1 was read as KCNQ2 pot 0.03 and KCNQ2 pot baseline 0.01.
CCOC(=O)c1cccc(NC(=O)COc2nsnc2N2CCOCC2)c1 was read as KCNQ2 pot 1.5 and KCNQ2 pot baseline -0.06.
`CSC(=O)NC(=O)NC(=O)c1ccc([N+](=O)[O-])cc1` gave KCNQ2 pot 0.93 and KCNQ2 pot baseline -0.36.
For O=C(Oc1cc(Cl)ccc1Cl)c1ccc(N2CCOCC2)c([N+](=O)[O-])c1 the results were KCNQ2 pot 0.03 and KCNQ2 pot baseline -0.11.
Screening Cc1cccc(C)c1OCC(O)CNC(C)(C)C (stereo unspecified) returned KCNQ2 pot 1.4 and KCNQ2 pot baseline -0.13.

The final three records of the part above lead into the next.
`CSC(=O)NC(=O)NC(=O)c1ccc([N+](=O)[O-])cc1` gave KCNQ2 pot 0.93 and KCNQ2 pot baseline -0.36.
For O=C(Oc1cc(Cl)ccc1Cl)c1ccc(N2CCOCC2)c([N+](=O)[O-])c1 the results were KCNQ2 pot 0.03 and KCNQ2 pot baseline -0.11.
Screening Cc1cccc(C)c1OCC(O)CNC(C)(C)C (stereo unspecified) returned KCNQ2 pot 1.4 and KCNQ2 pot baseline -0.13.
For COc1cc(/C=N/NC(=O)NC23CC4CC(CC(C4)C2)C3)ccc1O the results were KCNQ2 pot 3.6 and KCNQ2 pot baseline -1.8.
Screening CCCN(CCC)CCNC(=O)c1cc2c(=O)n(CC)c3ccccc3c2s1 returned KCNQ2 pot 0.84 and KCNQ2 pot baseline 0.13.
For CC(C)c1nc2c(c(=O)c3ccccc3n2C)c(=O)n1CCc1ccccc1 the results were KCNQ2 pot 2.3 and KCNQ2 pot baseline -2.4.
For COc1ccc(C)cc1N(CC(N)=O)S(=O)(=O)c1ccc(C)cc1 the results were KCNQ2 pot 1.9 and KCNQ2 pot baseline 0.19.
C=CCn1c(C)cc(C(=O)COc2ncnc3sccc23)c1C was read as KCNQ2 pot 0.39 and KCNQ2 pot baseline 0.89.
For N#Cc1cccn1-c1nccc(-c2cccs2)n1 the results were KCNQ2 pot 0.94 and KCNQ2 pot baseline -1.7.
O=C(O)CCCNc1ccc([N+](=O)[O-])c(NCCCC(=O)O)n1 was read as KCNQ2 pot 0.32 and KCNQ2 pot baseline -1.2.
Screening Cc1ccc(-c2csc3ncn(CC(=O)N4CCOCC4)c(=O)c23)cc1C returned KCNQ2 pot 0.47 and KCNQ2 pot baseline 0.45.
For Cc1sc2ncnc(N[C@@H](Cc3ccccc3)C(=O)O)c2c1C the results were KCNQ2 pot 0.61 and KCNQ2 pot baseline 1.4.
Screening Cn1cc(S(=O)(=O)CC(=O)Nc2ccc(Br)cc2)c2ccccc21 returned KCNQ2 pot 1.3 and KCNQ2 pot baseline 0.01.
Screening Cc1cccc(Cc2nnc(CCC(=O)N3CCCCC3c3nccs3)o2)c1 (stereo unspecified) returned KCNQ2 pot 0.5 and KCNQ2 pot baseline -0.49.
For CCOC(=O)Cn1nc(C)c(NC(=O)c2ccc(Cl)c([N+](=O)[O-])c2)c1C the results were KCNQ2 pot 0.18 and KCNQ2 pot baseline 1.5.
`NS(=O)(=O)c1ccc(CCNC(=O)CSc2nnc3ccccn23)cc1` gave KCNQ2 pot 0.2 and KCNQ2 pot baseline 0.67.
For COc1ccc(C(=O)NC2CCCc3ccccc32)cc1OC1CCN(C(C)=O)CC1 (stereo unspecified) the results were KCNQ2 pot 0.9 and KCNQ2 pot baseline 0.06.
For CCOc1ccc(CCNC(=O)COC(=O)c2cc(OC)c(OC)cc2[N+](=O)[O-])cc1OCC the results were KCNQ2 pot 0.5 and KCNQ2 pot baseline -1.3.
N#Cc1c2n(c(=S)n(-c3ccccc3)c1=O)CCCCC2 was read as KCNQ2 pot 0.22 and KCNQ2 pot baseline 0.25.
Screening CCOC(=O)N1CCC(NC(=O)c2ccc3c(c2)sc2nc(-c4ccc(OC)cc4)cn23)CC1 returned KCNQ2 pot 0.04 and KCNQ2 pot baseline -0.95.
`COc1ccc(C(=O)NCc2cn3c(C)csc3n2)cc1OC` gave KCNQ2 pot 0.66 and KCNQ2 pot baseline 0.73.
For CC1=C(C(=O)OC(C)C)C(c2c(O)ccc3ccccc23)NC(=O)N1 (stereo unspecified) the results were KCNQ2 pot 0.09 and KCNQ2 pot baseline -0.02.
For O=C(CCN1C(=O)c2ccccc2S1(=O)=O)N1CCN(c2ccccc2)CC1 the results were KCNQ2 pot 1.3 and KCNQ2 pot baseline 0.35.

Reprinted at random: two entries already listed
`NS(=O)(=O)c1ccc(CCNC(=O)CSc2nnc3ccccn23)cc1` gave KCNQ2 pot 0.2 and KCNQ2 pot baseline 0.67.
For O=C(CCN1C(=O)c2ccccc2S1(=O)=O)N1CCN(c2ccccc2)CC1 the results were KCNQ2 pot 1.3 and KCNQ2 pot baseline 0.35.

Next records follow:
For O=C(Nc1nnc(CCc2ccccc2)s1)c1ccc(F)cc1 the results were KCNQ2 pot 1.1 and KCNQ2 pot baseline -0.95.
For CCn1c(Cc2ccc(OC)cc2)nnc1SCC(=O)NC1CC1 the results were KCNQ2 pot 0.17 and KCNQ2 pot baseline 1.3.
`Cc1ccc(CC(=O)NCC2CCCCC2)cc1` gave KCNQ2 pot 7.5* and KCNQ2 pot baseline 2*.
O=C(CCc1nnc(CCC2CCCCC2)o1)NCCc1ccccn1 was read as KCNQ2 pot 0.83 and KCNQ2 pot baseline -1.6.
`COc1cc(NC(=O)C2C3C=CC(C3)C2C(=O)O)ccc1NC(=O)c1ccccc1` (stereo unspecified) gave KCNQ2 pot 0.68 and KCNQ2 pot baseline -2.1.
COc1ccccc1N/C=C/C(=C(C#N)C#N)N(C)C was read as KCNQ2 pot 0.21 and KCNQ2 pot baseline 0.04.
O=C(NCCN1CCOCC1)c1ccccc1[N+](=O)[O-] was read as KCNQ2 pot 0.05 and KCNQ2 pot baseline 0.15.
For Cc1c(CCC(=O)O)c(=O)oc2c(C)c3occ(-c4ccc(Br)cc4)c3cc12 the results were KCNQ2 pot 0.76 and KCNQ2 pot baseline -0.18.
For CC1(C)CC[C@@]23CC[C@]4(C)[C@@](OC2=O)(C3C1)[C@H]1O[C@H]1C1[C@@]2(C)CC[C@H](O)C(C)(C)C2CC[C@]14C (stereo partly specified) the results were KCNQ2 pot 0.71 and KCNQ2 pot baseline -0.63.
Screening CCc1c(C(=O)NNC(=S)NCC2CCCO2)csc1C (stereo unspecified) returned KCNQ2 pot 2 and KCNQ2 pot baseline -0.43.
For CC(C)(C)c1ccc(OCC(=O)NNC(=O)Cc2cccs2)cc1 the results were KCNQ2 pot 0.31 and KCNQ2 pot baseline -1.6.
`CC(C)[C@H](NC(=O)C1CCN(S(=O)(=O)c2ccccc2)CC1)C(=O)NCc1ccccn1` gave KCNQ2 pot 0.98 and KCNQ2 pot baseline 0.59.
For COC(=O)c1c(C(=O)OC)c(-c2ccc(Cl)cc2)n2c1CS(=O)(=O)C2 the results were KCNQ2 pot 0.82 and KCNQ2 pot baseline 0.08.
`Cc1ccc(NC(=O)N2CCC(C(=O)NCc3ccccc3)CC2)cc1` gave KCNQ2 pot 0.92 and KCNQ2 pot baseline -0.24.
C=CCn1c(=O)c2ccccc2n2c(SCC(=O)NCc3cccs3)nnc12 was read as KCNQ2 pot 0.09 and KCNQ2 pot baseline 1.2.
Screening Cc1sc(NC(=O)c2ccco2)nc1-c1ccccc1 returned KCNQ2 pot 0.42 and KCNQ2 pot baseline 0.04.
For CCN1C(=O)C2(C(C#N)=C(N)Oc3n[nH]c(COC)c32)c2ccccc21 (stereo unspecified) the results were KCNQ2 pot 1 and KCNQ2 pot baseline -0.53.

Screening results (PubChem)

These rows are one share of the data; count on the stated rates, not on these rows.
